Assay outcomes (PubChem BioAssay)
Menin-MLL FL inh: displaces fluorescein MLL peptide from human menin; Fluorescence polarization, fluorescein-MLL peptide displacement from menin; 290,000 tested, under 10 active; FP activity change, % at 61.4 µM; inconclusive = falling polarisation curve, or a change in total fluorescence; inactive = total fluorescence flat and polarisation flat or rising; no compound was filed as active; the % refers to the polarisation; negative = inhibition;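 also: % of control where 0% means no effect; inhibitors lower the polarisation; unlabelled MLL peptide was the positive control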
Sfp PPTase inh: inhibitors of Bacillus subtilis Sfp phosphopantetheinyl transferase; Biochemical Sfp PPTase activity, qHTS; Potency, µM, inactives show max response, negative = inhibition, hits mostly inhibitors; 3.5% of 310,000 active; active = well fitted inhibition curve with a large enough effect; inconclusive = small, poorly fitted or top-dose-only effect, or another doubt; inactive = no such curve, though single readings can be large or run the other way;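 also: the enzyme is Sfp with the accession as filed and its product quenches rhodamine fluorescence; potency is read from the fitted curve at half-maximal effect; 0% = enzyme reaction without inhibitor and -100% = no enzyme wells; top concentration of the series not given in the record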
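With Hepes-Na pH 7.6 buffer containing 10 mM MgCl2, Sfp (15 nM) modified BHQ-2-YbbR (12.5 uM) using rhodamine-CoA (5 uM). Two reads 30 minutes apart at 525/598 nm yielded each well's rate.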
gsp agonist: activates gsp, the McCune-Albright syndrome mutation | gsp mutant cells, cAMP HTRF, 30 min; control for the full effect not named in the record | Potency, µM (highest dose often 76.9 µM), for inactives: at the highest dose activation (cAMP increase), usual class: activators | 0.13% of 340,000 active | AID 624287; active = well fitted activation curve with a large enough effect; inconclusive = small, poorly fitted or top-dose-only effect, or another doubt; inactive = no such curve, though single readings can be large or run the other way; cell line not stated here;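 also: phosphodiesterase inhibitor Ro 20-1724 added with compounds to block cAMP breakdown; potency is read from the fitted curve at half-maximal effect; nearly all actives have a fitted effect of over 60% in size; about a fifth of the inactives were tested at one dose only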
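Cells stably selected in G418 were plated at 2000/well, grown 16-24 hr, then given compounds in DMSO with the PDE inhibitor […] (300 uM solution added) for 30 min at 37C; cAMP was read by HTRF.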
PINK1 modulator: changes PINK1 expression; PINK1 immunofluorescence, high-content cytometry, 24 h; Potency, µM (series often up to 76.6 µM), for the others: at the highest dose activation (PINK1 increase), usual class: activators; 0.2% of 410,000 active; AID 624263; active = well fitted activation curve with a large enough effect; inconclusive = small, poorly fitted or top-dose-only effect; inactive = flat fitted curve, though single readings scatter; cell line not stated here;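 also: potency is read from the fitted curve at half-maximal effect; % of control where 0% means no effect; nearly all actives have a fitted effect of over 65% in size; a mitochondrial uncoupler was the plate control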
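Stable cell line treated 24 h with compounds at 5 concentrations (CCCP controls), then fixed and immunostained for PINK1 plus nuclear and cell stains; PINK1 immunofluorescence quantified by laser-scanning microplate cytometry.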
D2 ag: activates the human D2 dopamine receptor; P14416; DiscoveRx PathHunter D2 beta-arrestin, luminescence, 90 min; 100% = 57 uM dopamine signal; activation, % (test concentration not listed); 0.084% of 360,000 active; AID 624465; in the data active = activation above about 40%; inconclusive = about 15% to 40%; inactive = below about 15%; also: compound concentration not given in the record; the text of the record calls up to 30% inactive
Target sequence (P14416 whole entry, looked up): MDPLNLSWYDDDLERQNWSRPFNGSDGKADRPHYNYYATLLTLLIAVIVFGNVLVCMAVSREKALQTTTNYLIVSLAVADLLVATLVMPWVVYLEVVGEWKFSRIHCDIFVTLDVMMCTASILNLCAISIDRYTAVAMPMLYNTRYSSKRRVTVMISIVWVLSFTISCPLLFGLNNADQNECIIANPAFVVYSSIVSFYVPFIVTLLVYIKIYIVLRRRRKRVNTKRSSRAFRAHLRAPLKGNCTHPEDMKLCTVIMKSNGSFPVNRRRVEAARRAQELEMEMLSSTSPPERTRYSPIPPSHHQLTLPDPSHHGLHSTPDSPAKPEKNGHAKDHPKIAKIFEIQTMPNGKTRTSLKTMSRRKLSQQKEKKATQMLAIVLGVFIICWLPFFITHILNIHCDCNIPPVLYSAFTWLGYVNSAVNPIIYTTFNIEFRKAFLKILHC
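Agonist mode: compounds alone added to overnight-plated D2 PathHunter cells for 90 min at 37 C, with 57 uM final dopamine (EC100) defining full response. Beta-arrestin recruitment detected by chemiluminescent reagent, read after 1 h at ambient temperature.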
ClpP mod: qHTS Assay for Activators of ClpP; purified B. subtilis ClpP, FRET peptide cleavage, 20 min; Potency, µM (top dose mostly 57.5 µM), for inactives: at the top dose activity change, negative = active; 1.9% of 340,000 active; AID 651965, 2013; active = well fitted falling curve with a large enough effect; inconclusive = small, poorly fitted or top-dose-only effect; inactive = no such curve, though single readings can be large or run the other way; also: potency is read from the fitted curve at half-maximal effect; the source files actives as falling curves though it sought activators and does not explain the sign; nearly all actives have a fitted effect of over 65% in size; many hits overshoot -100%
Target sequence (P80244 whole entry, looked up): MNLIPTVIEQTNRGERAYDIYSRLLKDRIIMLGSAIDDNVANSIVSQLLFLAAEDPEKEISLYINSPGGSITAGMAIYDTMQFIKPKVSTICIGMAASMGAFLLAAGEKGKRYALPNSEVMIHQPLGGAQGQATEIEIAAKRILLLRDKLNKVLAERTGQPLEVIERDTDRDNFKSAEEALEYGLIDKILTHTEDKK
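Buffer: 100 mM Tris/HCl pH8, 100 mM KCl, 0.05% low protease BSA, 2.5% glycerol, 0.01% Tween-20. ClpP 10 microg/mL final; 20 min RT; delta FRET normalized to ADEP and DMSO controls.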
gsp antagonist: antagonists of gsp mutant (McCune-Albright syndrome); gsp-mutant cells, cAMP HTRF, 30 min; control for the full effect not named in the record; Potency, µM (series often up to 76.9 µM), inactives show at the highest dose activity change, negative = inhibition, most hits filed as inhibitors; 0.4% of 340,000 active; AID 624288; active = falling curve of any shape with a large fitted effect; inconclusive = falling curve, mostly with a smaller effect; inactive = flat or rising curve; cell line not stated here;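 also: intracellular cAMP measured with PDE inhibitor Ro 20-1724 present during compound exposure; potency is read from the fitted curve at half-maximal effect; % is scaled to controls: 0 for no effect and ±100 for the full control effect; nearly all actives have a fitted effect of over 65% in size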
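Cells in G418 medium, seeded 16-24 h, 37C; buffer exchange to DPBS + 1 mM CaCl2, 0.5 mM MgCl2, 0.05% BSA; cpds in DMSO + […] (300 uM stock), 30 min 37C; HTRF cAMP detection.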
Numbers without * were called inactive; ? = inconclusive; · = not tested or not shown; & = joins results of further samples; [ ] = remark or other dose.

SMILES	Menin-MLL FL inh	Sfp PPTase inh	gsp agonist	PINK1 modulator	D2 ag	ClpP mod	gsp antagonist
Cc1ccc(C(=O)O)cc1-c1ccc(/C=C2/NC(=O)N(c3ccccc3)C2=O)o1	?	22.4µM*	-11.5%	-0.7%	-2.9	-3.2%	-15.9%
CCOc1ccccc1NC(=O)C(c1ccccc1)N1CCN(CC(=O)N2CCOCC2)CC1 (stereo not drawn)	·	·	-1.2%	0.4%	0.4	0.0%	-14.5%
COC(=O)C1=C(C)NC(=O)NC1c1ccc(OC(=O)c2ccco2)cc1 (stereo not drawn)	2.1	-6.8%	-2.2%[15.4 µM]	-1.3%	-3.0	·	8.0%
Cc1ccc(NS(=O)(=O)c2ccc(C(=O)OCC(=O)Nc3cc(C)on3)cc2)cc1	0.7	5.0%	10.2%	0.8%	-1.5	2.9%	-10.2%
CCOC(=O)C(=O)N1CCC(Cc2ccccc2)CC1	1.4	8.3%	-11.0%[15.4 µM]	-0.1%	-17.8	·	11.1%
CCCCN(CCNP(=O)(OCC)OCC)CP(=O)(OCC)OCC	2.3	4.4%	11.4%	-1.1%	-3.2	0.6%	0.7%
COc1ccc(C)cc1NC(=O)CN1C(=O)COc2ccc(S(=O)(=O)N3CCCCCC3)cc21	-0.1	-1.9%	-4.2%	0.5%&0.8%	-4.7	0.6%&1.5%	-10.7%
O=S(=O)(Cc1ccccc1)Nc1ccccc1Br	2.0	15.1%	2.5%[15.4 µM]	0.2%	0.5	0.7%	-9.1%
O=C(Cn1nc(-c2ccccc2)ccc1=O)NCCCN1CCOCC1	0.5	18.5%	?	0.4%	-1.4	-5.9%	12.3%
CCC(CC)c1nnc(NC(=O)C2CC(=O)N(C3CCCC3)C2)s1 (stereo not drawn)	7.6	50.1µM*	23.2%	-0.5%	0.3	·	7.4%
COCCN(C(=S)Nc1cccc(OC)c1)C1CCN(C(C)C)CC1	6.3	1.7%	-3.5%	-1.5%	-0.4	-1.2%	10.6%
O=C(Nc1ccccc1)N1CCSc2ccccc21	-1.4	-10.2%	-117.2%[inhibitor]	0.4%	-3.2	0.4%	-11.1%
Cc1cc(NS(=O)(=O)c2ccccc2)no1	1.4	6.2%	-12.6%	0.3%	-6.8	0.5%	6.8%
Cc1ccc(NC(=O)NCc2ccncc2)cc1Cl	-1.4	13.5%	-22.2%[15.4 µM]	-1.4%	-4.3	·	0.1%
CCOC(=O)C1CCCN(Cc2cc(OC)c(O)c(OC)c2)C1 (stereo not drawn)	3.4	-3.7%	30.4%	9.0%[38.3 µM]	-3.5	-0.3%	3.3%
CCN1C[C@@H]2[C@@H]3C(=O)N(Cc4ccccc4)C(=O)[C@@H]3[C@](C)(C(=O)OC)N2C1=NC1CCCCC1	·	·	·	-1.3%	-1.2	0.8%	11.9%
CCCCn1c(SCc2ccc(C(=O)OC)o2)nc2cc(S(N)(=O)=O)ccc21	-0.3	56.2µM*	-7.2%	-3.4%[38.3 µM]	1.4	-1.4%	?
c1ccc(-c2nc(NCc3cccs3)c3ccccc3n2)cc1	-1.0	4.3%	12.3%[15.4 µM]	0.2%	-5.5	·	?
C=C(Br)CN1CCN(CC(=C)Br)CC1	0.5	7.6%	-24.1%	-2.6%	-2.8	-0.8%	-1.4%
CCNc1nc(SC(C(C)=O)C(C)=O)nc(N(C)C)n1	0.9	-7.5%	-21.6%	-2.4%	-0.6	-1.3%	0.4%
CC(=O)c1cccc(NC(=O)CSc2nnnn2C2CCCC2)c1	-8.5	20.9%	24.6%	-0.3%	-2.1	·	-6.7%
O=C(NCCc1ccccc1)C1CCN(S(=O)(=O)c2ccccc2)CC1	4.1	-0.7%	-12.6%	-0.4%[38.3 µM]	-2.3	-0.2%	8.2%
O=C(Cc1ccc(Br)cc1)OCC(=O)N1CCOCC1	·	·	7.4%	0.3%	-1.3	-0.6%	12.0%
COCCCn1c(=O)c2ccccc2c2ccccc2c1=O	1.0	18.3%	-19.6%	-0.9%	-1.6	?	-11.6%
CC(=O)N(CN1C(=O)c2ccc([N+](=O)[O-])cc2C1=O)c1cccc(C(=O)O)c1	-2.0	6.0%	?	1.7%	2.6	1.4%	9.1%
More entries.
SMILES	Menin-MLL FL inh	Sfp PPTase inh	gsp agonist	PINK1 modulator	D2 ag	ClpP mod	gsp antagonist
Cc1ccc(CNC(=O)C2(C)CCN2C(=O)Cc2ccc(C(C)(C)C)cc2)cc1 (stereo not drawn)	·	·	·	1.6%	-4.8	-0.3%	·
COCCNc1ncncc1-c1c(C)noc1C	0.5	2.1%	·	3.5%	·	·	·
Clc1ccc(Oc2nc3c(Cl)cccc3s2)cc1Cl	-2.2	17.1%	?	15.7%	-5.3	·	2.1%
C=C(C)c1sc(-c2ccccc2)nc1C	·	·	·	1.9%	-1.3	-3.7%	-0.2%
CN(C)C(CNc1ncnc2ccccc12)c1c(F)cccc1Cl (stereo not drawn)	-0.6	18.1%	-10.5%[15.4 µM]	0.3%	-3.3	·	1.5%
Cc1nc2ccc(NC(=O)c3cccc(S(=O)(=O)N4CC(C)OC(C)C4)c3)cc2s1 (stereo not drawn)	11.7	13.2%	-17.5%	-1.4%	-1.4	-0.9%	-2.8%
CN(C)c1ccnc(Nc2ccc(F)cc2)c1C#N	1.8	-7.9%	17.3%	-1.7%	2.7	·	7.6%
CCOc1ccccc1NC(=O)COc1cccc(-n2cnnn2)c1	-3.2	1.9%	-25.2%	0.9%[38.3 µM]	-3.4	-0.2%	-1.0%
O=S(=O)(Cc1cc(N2CCOCC2)nc(-c2ccccn2)n1)c1ccccc1	2.7	2.1%	4.9%[15.4 µM]	-0.5%	-0.3	·	-13.5%
CCCc1nc(SCC(=O)c2ccc(F)cc2)c2ccccc2n1	2.9	?	8.7%	0.9%	-0.1	-1.3%	-14.5%
Cc1[nH]c(=O)[nH]c(=O)c1S(=O)(=O)Nc1ccc(Cl)c([N+](=O)[O-])c1	4.4	12.2%	-1.2%[15.4 µM]	0.9%	-6.7	1.2%	19.7%
CCc1nnc(NC(=O)CCC(=O)N2CCCC(O)C2)s1 (stereo not drawn)	-1.9	15.9%	?	-0.5%	-0.6	·	13.2%
Cn1c2ccccc2c2cc(C(=O)NNC(=O)CCl)sc21	-0.3	10.4%	-12.3%[15.4 µM]	0.4%	1.4	·	·
FC(F)(F)c1ccccc1-c1nc(N2CCOCC2)c2ccccc2n1	3.2	10.0%	·	-0.6%	·	·	·
CC(=O)N1CCN(c2ccc(NC(=S)NC(=O)c3ccc(C)c([N+](=O)[O-])c3)cc2)CC1	-1.8	-23.0%	-4.3%[15.4 µM]	0.7%	-4.8	31.6µM*	-17.0%
COc1ccc(C(=O)NCCn2cc(SCC(=O)NCc3ccco3)c3ccccc32)cc1	-1.6	?	-22.3%	-1.6%	0.7	-1.7%	-18.2%
C/C(=C\C(=O)O)C12CC3CC(CC(C3)C1)C2	0.4	13.8%	-8.3%	-0.6%	-2.3	0.4%	-10.6%
Cc1noc(/C=C/N(C)C)c1S(=O)(=O)N1CCC(C(=O)Nc2ccc(Cl)cc2)CC1	·	3.7%	-35.1%	6.4%	3.9	-3.9%	-20.3%
O=C1CCC/C=C\C[C@@H](CC(=O)N(CCO)Cc2ccccc2)C(=O)N[C@H](c2ccccc2)CO1	·	·	-29.1%	5.0%	-3.9	1.6%	5.2%
Cn1cccc1C(=O)OCC(=O)N1CCc2ccccc2C1	·	·	-45.8%[inhibitor]	-1.5%	-4.4	-3.7%	·
Cc1ccc(S(=O)(=O)NC(=O)c2ccccc2F)cc1	·	25.6%	22.2%	1.9%	-3.6	-0.8%	-2.6%
CCOC(=O)Cn1ncc2c(=O)oc3ccccc3c21	-0.3	19.8%	11.6%	-1.1%	-3.7	-1.1%	9.8%
CCCNC(=O)C1(C)CCN1C(=O)c1ccc(C(C)(C)C)cc1 (stereo not drawn)	·	·	·	0.5%	-2.2	-0.1%	·
CNC(=O)C[C@H]1C(=O)N(Cc2ccccc2)C[C@@H]1Cc1ccccc1	·	·	-57.4%[inhibitor]	-1.9%	-3.2	-0.5%	·
OCCNCCCCOc1ccc(OCc2ccccc2)cc1	4.5	7.0%	-8.1%[15.4 µM]	-3.0%	-4.3	-3.5%	-12.1%
Next records follow:
SMILES	Menin-MLL FL inh	Sfp PPTase inh	gsp agonist	PINK1 modulator	D2 ag	ClpP mod	gsp antagonist
CC(=O)Nc1ccc(NC(=O)C(C)OC(=O)C2(c3ccccc3F)CCCC2)cc1 (stereo not drawn)	·	·	-59.2%[inhibitor]	-0.4%	2.4	0.8%	-5.9%
CC(CCc1ccccc1)NC(=O)N1CCOCC1 (stereo not drawn)	7.3	0.0%	-2.4%	1.6%	-0.1	0.5%	-3.2%
CCOC(=O)CNC(=O)CNC(=O)c1ccc(OC)cc1	-0.9	16.7%	-37.1%	0.5%	-1.7	-0.7%	3.8%
COCCNC(=O)c1csc2c1CCCC2	-1.2	-3.7%	-23.6%	2.1%[38.3 µM]	3.8	-1.0%	7.6%
O=C(Nc1ccc(O)c2c(=O)cc(-c3cccc(Cl)c3)oc12)c1cccc(Cl)c1	-5.9	-8.1%	·	11.0%	-3.6	3.0%	-4.5%
O=C(OCc1ccccc1C(F)(F)F)c1cc([N+](=O)[O-])ccc1N1CCOCC1	2.0	1.2%	-41.1%[inhibitor]	2.1%	0.1	-1.2%	-7.0%
COc1ccc(NC(=O)c2cccc3c2C(=O)c2ccc(-c4cnc(OC)nc4)cc2S3(=O)=O)cc1	·	·	-5.8%	1.0%	-0.5	-2.4%	-3.6%
CCOC(=O)N1CCN(C(=O)c2ccc3nc4ccc(Cl)cc4c(=O)n3c2)CC1	2.5	27.9%	7.7%	-3.3%[38.3 µM]	-2.6	14.1µM*	13.4%
NC(=O)NC(=O)COC(=O)CCCCCNS(=O)(=O)c1ccc2c(c1)OCCO2	-3.2	12.5%	-5.0%	2.2%	-3.6	1.0%	6.9%
CCOC(=O)c1c(-c2ccc(C)o2)csc1NC(=O)CN1CCOCC1	1.5	44.7µM*	4.3%	-0.5%	-7.9	0.2%	-0.2%
COc1ccc(CCNC(=O)c2cc(-c3cc(Cl)cc(Cl)c3)oc2C)cc1	0.8	3.5%	6.1%	10.9%[38.3 µM]	-1.3	-16.2%	12.9%
